Beta2AR agonist = activates human beta-2 adrenergic receptor causing internalization | P07550 | Am2.2-beta2AR cells, FAP receptor internalization, flow cytometry; reference of the scale not given here | response, % (concentration not given with the values) | 340,000 compounds, 0.43% hits | AID 504454;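 active = response above a set limit, near 3 SD of response in nonfluorescent compounds, cut at about 42% in these data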;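 also: stock transfer was 100 nL into about 11 µL; a reference agonist was the positive control; negative values mostly stem from fluorescent compounds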
Ecoli growth = E. coli growth inhibition; OD600 absorbance (no concentration beside the values); 330,000 compounds, 0.21% hits; Escherichia coli growth, OD600, 23 h; hits give low values;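 active = OD600 absorbance below the run mean of sample wells minus 3.6 SD, in any replicate, cut at about 0.56 in these data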;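 also: stock transfer was 300 nL into about 60 µL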
ALR inh = blocks human ALR sulfhydryl oxidase activity | P55789 | purified ALR, DTT oxidation, H2O2 HRP-luminol luminescence | inhibition, % (concentration not given with the values) | 290,000 compounds, 3.8% hits | AID 485317;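 active = mean and each replicate at 75% or more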;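 also: stock transfer was 7.5 nL into about 7.5 µL; 0% = neutral wells and 100% = wells with inactivated enzyme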
FGF22 binding = FGF22 (human) thermal shift binding | Q9HCT0 | recombinant FGF22 thermal shift, SYPRO orange fluorescence; percent of sucrose octasulfate shift, DMSO zero | calls only at 9.99 µM | 340,000 compounds, 1.5% hits;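 active = melting point raised past a set limit in the mean and every replicate; three in four hits are not shown here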
Target sequence (Q9HCT0 whole entry, looked up): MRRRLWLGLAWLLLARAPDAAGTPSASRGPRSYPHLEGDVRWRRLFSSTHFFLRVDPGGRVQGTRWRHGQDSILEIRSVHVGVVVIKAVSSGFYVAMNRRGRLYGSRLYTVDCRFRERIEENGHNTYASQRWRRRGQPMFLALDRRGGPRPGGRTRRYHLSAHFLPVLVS
HNF4A DNA FP = change in binding of human HNF4 alpha to DNA; HNF4a-FITC DNA binding, fluorescence polarization, 1 h; activity change, % at 10 µM; P41235; 360,000 compounds, 0.3% hits; in the data active = activity change above about 30%, passing the limit was not always enough;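 also: controls were the assay level and a saturating level of protein; the project sought stronger binding though the title names inhibitors; some compounds called inactive have numbers as strong as hits; positive values seem to mean higher polarization but the record does not say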
Target sequence (P41235 whole entry, looked up): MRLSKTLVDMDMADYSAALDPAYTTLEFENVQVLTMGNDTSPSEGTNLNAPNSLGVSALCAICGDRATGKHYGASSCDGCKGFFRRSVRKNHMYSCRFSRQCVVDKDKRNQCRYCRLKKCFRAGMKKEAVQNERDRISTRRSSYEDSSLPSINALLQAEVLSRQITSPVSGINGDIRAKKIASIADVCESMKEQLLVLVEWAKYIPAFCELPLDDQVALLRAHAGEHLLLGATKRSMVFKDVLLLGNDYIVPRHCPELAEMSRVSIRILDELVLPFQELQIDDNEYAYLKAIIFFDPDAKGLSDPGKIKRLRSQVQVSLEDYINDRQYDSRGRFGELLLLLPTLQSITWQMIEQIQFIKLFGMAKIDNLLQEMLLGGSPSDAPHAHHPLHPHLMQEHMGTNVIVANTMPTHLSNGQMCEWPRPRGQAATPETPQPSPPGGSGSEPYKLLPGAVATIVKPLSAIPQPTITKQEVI
LANA-H2B inh = blocks KSHV LANA binding to histone H2A/H2B; 320,000 compounds, 0.6% hits; cell-free LANA-H2A/H2B peptide, fluorescence polarization; Q9QR71; AID 2629; inhibition, % (concentration not given with the values); in the data active = inhibition mostly above about 10%, no sharp cut-off; inactive = mostly below about 6.7%;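 also: stock transfer was 7.5 nL into about 10 µL; 0% = median of vehicle wells and 100% = median of positive control wells; one replicate is shown; the record names a cut of 25% in any replicate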
UCH37 DUB inh = human UCH37 deubiquitinating enzyme inhibition; purified proteasome/UCH37, Ub-AMC cleavage fluorescence; inhibition, % (concentration not given with the values); Q9Y5K5; 330,000 compounds, 0.33% hits; AID 588478;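 active = mean of two replicates above 20%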;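 also: 0% = compound-free wells with enzyme and 100% = wells lacking proteasome; stock transfer was 100 nL into about 20 µL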
Target sequence (Q9Y5K5 whole entry, looked up): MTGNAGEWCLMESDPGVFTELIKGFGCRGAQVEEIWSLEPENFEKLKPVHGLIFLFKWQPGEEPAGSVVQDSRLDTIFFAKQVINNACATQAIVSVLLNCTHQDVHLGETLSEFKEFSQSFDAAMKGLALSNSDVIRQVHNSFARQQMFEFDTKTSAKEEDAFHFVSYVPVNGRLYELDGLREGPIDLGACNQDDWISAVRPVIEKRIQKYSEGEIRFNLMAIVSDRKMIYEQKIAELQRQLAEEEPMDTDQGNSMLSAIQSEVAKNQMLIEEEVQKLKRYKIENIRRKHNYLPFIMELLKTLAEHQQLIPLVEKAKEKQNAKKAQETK
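assay system = human UCH37 enzyme supplied as purified proteasome complex | amount = proteasome at 0.15 nM in the dispensed enzyme solution | schedule = 30 min compound-proteasome preincubation then 25 min substrate reaction, room temperature | measured by = fluorescence, ex 355 nm, em 460 nm | benchmarks = no-proteasome wells (full inhibition) and compound-free wells (no inhibition)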
* = called active by the depositor; i = inactive; . = not tested or not shown. Not all compounds are listed; count on the stated rates, not on these rows.

Assay codes – A = Beta2AR agonist; B = Ecoli growth; C = ALR inh; D = FGF22 binding; E = HNF4A DNA FP; F = LANA-H2B inh; G = UCH37 DUB inh
CC1CCCCN1C(=O)CSc1nnc(-c2ccc(Cl)s2)o1 (centres undefined)
  A: -2; B: 0.73; C: -4; D: .; E: -0.4; F: -4.0; G: 2.2
O=C(c1ncn(Cc2ccccc2)c1C(=O)N1CCN(c2ccccc2)CC1)N1CCN(c2ccccc2)CC1
  A: -4; B: 0.66; C: 21; D: i; E: 2.0; F: -2.6; G: 1.3
CC[C@@H]1C(c2cccc(Cl)c2)=NN(c2ccc(Br)cc2)[C@H]1C(=O)N1CCOC1=O
  A: -4; B: 0.69; C: .; D: .; E: -3.3; F: .; G: i
Cc1csc(SCc2c(C(=O)O)oc3ccccc23)n1
  A: 0; B: 0.7; C: -9; D: .; E: -1.1; F: -4.3; G: 1.2
CSc1ccc(/C=C/C(=O)OCC(=O)N(C)CCC#N)cc1
  A: 0; B: 0.66; C: 4; D: i; E: -1.5; F: 0.4; G: -342
COc1cc(-c2cc(C(=O)Nc3cccc(C(C)=O)c3)c3ccccc3n2)cc(OC)c1OC
  A: 15; B: .; C: -6; D: i; E: -1.3; F: 0.6; G: .
Cc1sc2ncnc(Sc3ccccc3C(=O)Nc3ccc(Br)cc3)c2c1C
  A: -7; B: 0.73; C: -11; D: i; E: 0.2; F: -1.5; G: 4.6
CC(C)C(=O)COc1c2occc2cc2ccc(=O)oc12
  A: -31; B: 0.74; C: .; D: i; E: 2.1; F: .; G: 3.2
CCN(CC)S(=O)(=O)c1cccc(C(=O)N/N=C/c2ccccn2)c1
  A: -6; B: .; C: -5; D: i; E: 0.1; F: 0.9; G: .
Cc1cc(C(=O)Nc2c(C)n(C)n(-c3ccccc3)c2=O)cs1
  A: -7; B: 0.68; C: 2; D: .; E: -4.6; F: -3.7; G: 1.6
COCCN1CCn2c(nc3cc(NC(=O)c4ccc(OC)cc4)ccc32)C1
  A: 4; B: 0.76; C: -15; D: .; E: 5.2; F: -1.6; G: -2.3
CCN(CC)S(=O)(=O)c1ccc2c(c1)c(=O)c(C(=O)NCCCN(C)c1ccccc1)cn2C
  A: 9; B: 0.68; C: 62; D: .; E: 2.8; F: 1.3; G: 3.5
CCOCC(=O)Nc1sc2c(c1C(=O)OCC)CCCC2
  A: 10; B: 0.71; C: .; D: .; E: -0.2; F: -3.6; G: 1.3
CN(C)CCNC(=O)CCn1nc(-c2ccc(Cl)cc2)ccc1=O
  A: -11; B: 0.71; C: .; D: i; E: 1.1; F: -1.9; G: -0.2
COc1ccc(Cl)cc1NC(=O)CCc1nc(-c2ccccc2F)no1
  A: 27; B: 0.71; C: .; D: i; E: -0.5; F: 9.2; G: 1.8

Individual results from the entries so far.
Result for `Cc1sc2ncnc(Sc3ccccc3C(=O)Nc3ccc(Br)cc3)c2c1C` in ALR inh: -11
Result for `CCN(CC)S(=O)(=O)c1cccc(C(=O)N/N=C/c2ccccn2)c1` in LANA-H2B inh: 0.9
Result for `CC1CCCCN1C(=O)CSc1nnc(-c2ccc(Cl)s2)o1` (centres undefined) in ALR inh: -4

Additional structures
Assay codes – A = Beta2AR agonist; B = Ecoli growth; C = ALR inh; D = FGF22 binding; E = HNF4A DNA FP; F = LANA-H2B inh; G = UCH37 DUB inh
Cc1ccc(C)c(S(=O)(=O)N2CCN(C(=O)[C@@H](NC(=O)c3ccc(F)cc3)C(C)C)CC2)c1
  A: 2; B: 0.71; C: -4; D: i; E: -0.2; F: -1.0; G: -0.7
COc1ccc(-c2[nH]ncc2-c2csc(C)n2)c(O)c1
  A: -4; B: 0.69; C: -14; D: i; E: 2.0; F: 2.1; G: -2.5
CCOc1ccc(C2/C(=C(\O)c3ccc4c(c3)OCCO4)C(=O)C(=O)N2CCCN2CCOCC2)cc1OC (centres undefined)
  A: -3; B: 0.66; C: -3; D: i; E: 1.6; F: 1.0; G: 11
C=CCn1c(=O)c2ccccc2n2nnc(C(=O)OCC)c12
  A: -5; B: 0.66; C: 7; D: i; E: -6.2; F: -5.2; G: 5.1
O=C(NCCc1csc(-c2ccc(C(F)(F)F)cc2)n1)c1cccs1
  A: 12; B: 0.66; C: -4; D: i; E: 3.0; F: 0.9; G: 6.4
CCCCn1c(=O)c(C(=O)c2ccccc2)nc2ccccc21
  A: -17; B: 0.72; C: -11; D: .; E: 1.2; F: 1.5; G: 7.4
Cc1cc(C)cc(N(C(=O)CNC(=O)c2ccco2)C(C(=O)NC2CCCC2)c2cccnc2)c1 (centres undefined)
  A: 6; B: 0.75; C: -7; D: .; E: -0.3; F: 0.5; G: 0.5
COc1c(/C=N/NC(=O)c2ccccc2O)c(CCN(C)C(C)=O)cc2c1OCO2
  A: -4; B: .; C: 6; D: .; E: 0.3; F: -1.0; G: .
CCOc1cccc(C2CC(=O)Nc3cc(OC)c(OC)cc32)c1 (centres undefined)
  A: 1; B: .; C: 1; D: i; E: -8.2; F: -3.9; G: .
Cc1cc(Cl)nc(SCC(=O)c2ccccc2)n1
  A: -4; B: 0.67; C: 46; D: i; E: -0.3; F: 2.3; G: 1.1
Cc1nnc(N2CCC(C(=O)N3CCCCCC3)CC2)c2nn(-c3ccc(Cl)cc3)c(C)c12
  A: 17; B: 0.65; C: -15; D: i; E: 1.4; F: 2.1; G: -20
CC(/C=N/NC(=O)c1cc(-c2ccc(C)o2)[nH]n1)=C\c1ccccc1
  A: -3; B: .; C: 2; D: i; E: 0.9; F: -1.8; G: .
CC1(CC(=O)N/N=C/c2ccc(-c3ccc(C(=O)O)cc3)o2)OCCO1
  A: 2; B: .; C: -7; D: .; E: 1.0; F: 2.3; G: .
CCOc1cc(C2CC(=O)N3CN(C4CCCCC4)CSC3=C2C#N)ccc1O (centres undefined)
  A: -3; B: .; C: -3; D: i; E: 0.2; F: 0.6; G: .
COc1ccc(CC(NC(C)=O)C(=O)NC2CCN(C(=O)c3cccc(Cl)c3)CC2)cc1OC (centres undefined)
  A: 14; B: 0.7; C: .; D: i; E: -1.4; F: .; G: 5.9

Reprinted at random: 2 records from the list.
Assay codes – A = Beta2AR agonist; B = Ecoli growth; C = ALR inh; D = FGF22 binding; E = HNF4A DNA FP; F = LANA-H2B inh; G = UCH37 DUB inh
COc1c(/C=N/NC(=O)c2ccccc2O)c(CCN(C)C(C)=O)cc2c1OCO2
  A: -4; B: .; C: 6; D: .; E: 0.3; F: -1.0; G: .
Cc1cc(Cl)nc(SCC(=O)c2ccccc2)n1
  A: -4; B: 0.67; C: 46; D: i; E: -0.3; F: 2.3; G: 1.1

Compound profiles (already shown). Screens in order: Beta2AR agonist | Ecoli growth | ALR inh | FGF22 binding | HNF4A DNA FP | LANA-H2B inh | UCH37 DUB inh
`CCOc1ccc(C2/C(=C(\O)c3ccc4c(c3)OCCO4)C(=O)C(=O)N2CCCN2CCOCC2)cc1OC` (centres undefined) as listed: -3 | 0.66 | -3 | i | 1.6 | 1.0 | 11
`COc1cc(-c2cc(C(=O)Nc3cccc(C(C)=O)c3)c3ccccc3n2)cc(OC)c1OC` as listed: 15 | . | -6 | i | -1.3 | 0.6 | .
`C=CCn1c(=O)c2ccccc2n2nnc(C(=O)OCC)c12` as listed: -5 | 0.66 | 7 | i | -6.2 | -5.2 | 5.1

New compounds follow.
Assay codes – A = Beta2AR agonist; B = Ecoli growth; C = ALR inh; D = FGF22 binding; E = HNF4A DNA FP; F = LANA-H2B inh; G = UCH37 DUB inh
O=C(O)C1CCCN1c1ncnc2ccccc12 (centres undefined)
  A: -4; B: 0.67; C: -2; D: .; E: 1.4; F: -1.6; G: 3.0
O=C(CCNC(=O)N1CC(=O)Nc2ccccc21)Nc1ccc(Cl)cc1
  A: -9; B: 0.65; C: -5; D: i; E: -3.8; F: 0.8; G: 1.4
Cc1ccc(-n2c(SCc3ccc(C(=O)O)cc3)nnc2-c2ccncc2)cc1
  A: 0; B: 0.63; C: 1; D: i; E: -0.5; F: -0.9; G: 2.9
CC(C)Cn1c(SCC(=O)N(C)C2CCS(=O)(=O)C2)nc2cc(Cl)ccc2c1=O (centres undefined)
  A: 1; B: 0.69; C: .; D: i; E: 1.3; F: .; G: 2.0
COc1ccc(C(=O)N/C(=C\c2cn(C)c3ccccc23)C(=O)NCCCN2CCOCC2)cc1OC
  A: 10; B: 0.72; C: 21; D: i; E: 2.1; F: -2.0; G: 11
C[C@H](CO)N1C[C@H](C)[C@@H](CN(C)C(=O)NC2CCCCC2)Oc2c(NS(=O)(=O)c3ccccc3)cccc2C1=O
  A: -1; B: .; C: 5; D: i; E: -5.7; F: 4.7; G: 2.2
O=C1c2cccnc2C(Nc2ccc(Cl)cc2)N1Cc1cccs1 (centres undefined)
  A: -2; B: 0.72; C: 8; D: i; E: 2.9; F: -1.2; G: 6.6
CCCC(=O)Nc1cc(S(=O)(=O)N2CCCCC2)ccc1N1CCOCC1
  A: 2; B: 0.64; C: .; D: i; E: -1.4; F: 3.6; G: 0.6
CC(C)c1ccccc1NC(=O)COC(=O)c1cc([N+](=O)[O-])ccc1N1CCOCC1
  A: 8; B: 0.72; C: -7; D: i; E: -3.0; F: -0.7; G: 7.4
Cn1nnc2cc(C(=O)NC(C)(C)C)ccc21
  A: -6; B: 0.68; C: -5; D: .; E: 2.8; F: 8.1; G: 2.5
O=C(NC1CCN(c2ncccn2)CC1)c1ccccc1Cl
  A: 0; B: 0.66; C: .; D: i; E: 0.5; F: 4.7; G: -2.7
Cc1ccc(S(=O)(=O)N2CCCCC2C(=O)Nc2ccc(N(C)C)cc2)cc1 (centres undefined)
  A: -3; B: 0.69; C: .; D: i; E: 1.3; F: -0.7; G: 1.7
Cc1cccc(N(C(=O)C(F)(F)F)C(C(=O)NC2CCCCC2)c2cccs2)c1 (centres undefined)
  A: 6; B: 0.71; C: -1; D: .; E: 4.2; F: 3.2; G: 1.8
COc1cc(OC)c(NS(=O)(=O)c2cc(C(=O)OC(C)C(=O)NC3CC3)c(Cl)cc2Cl)cc1Cl (centres undefined)
  A: -3; B: 0.68; C: -12; D: .; E: 0.4; F: -10; G: 1.5
Cc1ccc(N2C(=S)N=C(Nc3ccccc3C)C23CCOC(C)(C)C3)cc1 (centres undefined)
  A: 8; B: 0.67; C: -16; D: .; E: 2.4; F: 2.7; G: 5.9
COc1ccc(/C=C/C(=O)NC(=S)NNC(=O)c2cnccn2)cc1
  A: 13; B: .; C: -20; D: i; E: 4.5; F: -3.1; G: .
COc1cc(OC)cc(C(=O)NNC(=O)CCNC(=O)c2ccc(Br)cc2)c1
  A: -5; B: 0.67; C: .; D: i; E: 0.6; F: -0.8; G: 1.0
O=C(Nc1nc2c(s1)CCCC2)Oc1ccccc1
  A: 4; B: 0.78; C: -1; D: .; E: 3.8; F: -3.3; G: 1.1
CCN(Cc1ccccc1)C(=O)C(=O)c1cn(CC(=O)N2CCCC2)c2ccccc12
  A: 6; B: 0.61; C: -4; D: i; E: 0.7; F: -1.3; G: 2.4
Cc1cc(C)nc(/N=C(\N)C2=C(O)CC(C)(C)CC2=O)n1
  A: -14; B: .; C: 1; D: .; E: -1.4; F: -5.1; G: .
COc1ccc(N(CC(=O)NCCSc2ccccn2)S(=O)(=O)c2ccc(C)cc2)cc1OC
  A: -1; B: 0.62; C: -5; D: i; E: 2.0; F: -1.0; G: 0.5
CCOc1ccc(NC(=O)C2CCCN2C(=O)OCc2ccccc2)cc1 (centres undefined)
  A: 12; B: 0.64; C: -4; D: i; E: -4.6; F: -1.7; G: -0.2
COc1ccc(N(CC(=O)Nc2ccc(C(N)=O)cc2)S(=O)(=O)c2ccc(C)c([N+](=O)[O-])c2)cc1
  A: 5; B: 0.71; C: 2; D: .; E: 0.0; F: 8.9; G: -0.4
CN1CCN(C(=O)/C(=C/c2ccco2)NC(=O)c2ccccc2)CC1
  A: 8; B: 0.7; C: -4; D: i; E: -2.5; F: 2.9; G: 6.0
COc1ccc2cc(CN(Cc3cccnc3)Cc3nnnn3Cc3ccccc3)c(=O)[nH]c2c1
  A: .; B: 0.69; C: 1; D: i; E: .; F: -4.8; G: 5.8

Screening results (PubChem BioAssay)
